Screening results deposited in PubChem by Broad Institute.
Tgondii IFNg: T. gondii growth inhibition under IFN-gamma; Toxoplasma gondii growth in IFN-gamma-treated host cells; hits give low values; reference of the scale not given here; activity change, negative = inhibition, %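 (about 20 µM by stock and volumes)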; hit rate 3.8% among 69,000; AID 1259416;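 active = below -70%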;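 note: host cells are HeLa cells infected with Toxoplasma gondii; parasite growth read as luciferase light; one replicate is shown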
An asterisk follows results filed as active. An excerpt; count on the stated rates, not on these rows.

SMILES	Tgondii IFNg
O=C(O)[C@H]1C[C@H](C(=O)NCc2ccncc2)CN(CCC(F)(F)F)C1	-2
CCCc1nc2ccccc2n1CC(O)COc1ccc(NC(C)=O)cc1 (stereo unspecified)	-25
O=C1CO[C@H]2CN(C(=O)c3cnc4ccccc4c3)C[C@@H]2N1	379
COc1ccc(-n2c(=O)c(C(=O)Nc3ccc(C)cc3C)c(O)c3cccnc32)cc1	-51
Cc1cc(C)cc(NC(=O)c2c(O)c3cccnc3n(-c3ccccc3)c2=O)c1	-2
COc1ccc2c3c(n(C)c2c1)[C@H](CO)N(C(=O)CN(C)C)CC31CN(Cc2nccs2)C1	12
C[C@H]1CC=CC[C@@H](c2cccc(Cl)c2)NC(=O)[C@H](Cc2ccccc2)N(C)C(=O)c2ccccc2O1 (mixture of isomers)	-45
CN(C)CC(=O)N[C@H]1CC[C@H](CCNC(=O)C2CCC2)O[C@@H]1CO	-12
O=C1CCCc2nc(N3CCCCC3)ncc21	37
O=C(C(Cc1ccccc1)N1C(=O)c2ccccc2C1=O)N1CCc2ccccc21 (stereo unspecified)	7
COc1ccc(CC(=O)Nc2ncn[nH]2)cc1OC	-36
COc1ccc(C)cc1S(=O)(=O)NCCc1csc(-c2cccc(F)c2)n1	18

Another view of four compounds above:
Cc1cc(C)cc(NC(=O)c2c(O)c3cccnc3n(-c3ccccc3)c2=O)c1
  Tgondii IFNg: -2
COc1ccc2c3c(n(C)c2c1)[C@H](CO)N(C(=O)CN(C)C)CC31CN(Cc2nccs2)C1
  Tgondii IFNg: 12
C[C@H]1CC=CC[C@@H](c2cccc(Cl)c2)NC(=O)[C@H](Cc2ccccc2)N(C)C(=O)c2ccccc2O1 (mixture of isomers)
  Tgondii IFNg: -45
CN(C)CC(=O)N[C@H]1CC[C@H](CCNC(=O)C2CCC2)O[C@@H]1CO
  Tgondii IFNg: -12

Single entries from the entries so far.
C[C@H]1CC=CC[C@@H](c2cccc(Cl)c2)NC(=O)[C@H](Cc2ccccc2)N(C)C(=O)c2ccccc2O1 (mixture of isomers) in Tgondii IFNg: -45
COc1ccc(-n2c(=O)c(C(=O)Nc3ccc(C)cc3C)c(O)c3cccnc32)cc1 in Tgondii IFNg: -51
COc1ccc(C)cc1S(=O)(=O)NCCc1csc(-c2cccc(F)c2)n1 in Tgondii IFNg: 18
COc1ccc(CC(=O)Nc2ncn[nH]2)cc1OC in Tgondii IFNg: -36
O=C(C(Cc1ccccc1)N1C(=O)c2ccccc2C1=O)N1CCc2ccccc21 (stereo unspecified) in Tgondii IFNg: 7

The listing continues.
SMILES	Tgondii IFNg
CC1(C)C2CCC1(C(=O)O)c1nc3ccccc3nc12 (stereo unspecified)	-11
Cc1ccc2[nH]c(=O)c(-c3nc(-c4ccccc4Cl)no3)c(O)c2c1	-16
OCC1(Cc2cccc(C(F)(F)F)c2)CCN(c2cnc3ccccc3n2)CC1	-12
O=C(NC1C=CS(=O)(=O)C1)c1ccc2[nH]c3c(c2c1)CCCC3 (stereo unspecified)	8
NC1CCCN(C(=O)c2cc(=O)[nH]c3cc(F)ccc23)CC1 (stereo unspecified)	2
CC(C#N)(Nc1ccccc1)c1cccnc1 (stereo unspecified)	98
COc1ccccc1NC(=O)c1sc2nc(-c3cc4cccc(OC)c4oc3=O)[nH]c(=O)c2c1C	5
c1csc(-c2cc(-c3cccs3)nc(-c3cccs3)c2)c1	-7
O=C(O)Cc1cc(C2CCN(C(=O)C3(c4ccccc4)CC3)CC2)n[nH]1	-2
Cc1cc(C)n(Cc2nc(-c3ccc(NC(=O)c4ccc5c(c4)OCO5)cc3)oc2C)n1	-98*
CC(=O)c1c(O)c(C)c(O)c2c1OC1=CC(=O)C(C(C)=O)C(=O)[C@@]12C (stereo partly specified)	-44
C=C[C@@H]1C[C@]1(NC(=O)[C@@H]1C[C@@H](Oc2ncc(OC)c3ccc(Cl)cc23)CN1C(=O)[C@@H](NC(=O)OC(C)(C)C)C(C)(C)C)C(=O)NS(=O)(=O)C1CC1	-73*
Cc1ncc(NC(=O)c2ccc(CN3CCN(C)CC3)c(C(F)(F)F)c2)cc1Nc1nccc(-c2cccnc2)n1	-23
Cc1[nH]cnc1CN1CCc2[nH]nc(-c3ccc(-c4ccccc4)cc3)c2C1	57
O=C(CN1CCN(CC2CC2)C(CCO)C1)NC1CCCCCCC1 (stereo unspecified)	-1

Looked up by compound from the entries so far:
SMILES	Tgondii IFNg
O=C(O)[C@H]1C[C@H](C(=O)NCc2ccncc2)CN(CCC(F)(F)F)C1	-2
CC1(C)C2CCC1(C(=O)O)c1nc3ccccc3nc12 (stereo unspecified)	-11
CN(C)CC(=O)N[C@H]1CC[C@H](CCNC(=O)C2CCC2)O[C@@H]1CO	-12
